INS promoter inh: TRM-6 insulin promoter activity inhibition. inhibition, % at 2 µM. AID 1273. 130,000 compounds, 0.9% hits. TRM-6 cells (human fetal islet line), insulin promoter-eGFP reporter, imaging; reporter expression induced with tamoxifen;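 active means inhibition above the mean plus 3 SD, with well images judged a real hit on visual review, cut at about 60% in these data, passing the limit was not always enough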
GALR2 ag: agonists of human galanin receptor 2 (GALR2) | 140,000 compounds, 0.48% hits | GALR2-expressing cells, agonist activation read-out | activation, %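 (tested at 5 µM)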;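 active means above mean plus 3 SD of all compounds, about 5% in these data, not always enough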;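 further: 0% = vehicle buffer wells and 100% = reference agonist at full effect; tested in CHO reporter cells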
Target sequence (O43603 whole entry, looked up): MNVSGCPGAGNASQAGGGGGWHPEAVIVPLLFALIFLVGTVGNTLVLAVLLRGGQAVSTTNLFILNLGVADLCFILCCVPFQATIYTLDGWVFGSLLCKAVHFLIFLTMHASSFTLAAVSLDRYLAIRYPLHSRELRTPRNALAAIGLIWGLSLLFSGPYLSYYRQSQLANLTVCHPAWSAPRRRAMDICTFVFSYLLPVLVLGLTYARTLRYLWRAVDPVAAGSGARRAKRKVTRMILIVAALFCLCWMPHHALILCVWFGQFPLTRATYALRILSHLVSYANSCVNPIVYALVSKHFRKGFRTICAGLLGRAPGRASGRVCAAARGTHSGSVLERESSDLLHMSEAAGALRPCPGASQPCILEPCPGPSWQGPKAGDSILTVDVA
HSV replic up: increases HSV replication in cells; maximum fold increase; 220,000 compounds, 0.005% hits; AID 1956; HSV replication augmentation in cells, fold increase;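 active means peak rise of 1.5-fold or more in the series; tested in PC3 cells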;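 further: first round at 10 µM; read as green reporter fluorescence; hits show the peak of a series up to 25 µM; 1 = signal of infected wells without compound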
RGS16-Gao: regulators of human RGS16-Galphao interaction | O15492+P09471 | bead-based flow cytometry RGS16-Galphao binding, fluorescence; actives lie on both sides | binding response (% of control), % at 10 µM | 220,000 compounds, 0.38% hits;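 active means below 25% or above 175%, edge rows of some plates excepted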;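 further: Galphao activated by GDP with aluminum fluoride before binding; 100% = wells without compound and 0% = beads without RGS; some results beyond the cut were filed as inactive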
Target sequence (O15492 whole entry, looked up): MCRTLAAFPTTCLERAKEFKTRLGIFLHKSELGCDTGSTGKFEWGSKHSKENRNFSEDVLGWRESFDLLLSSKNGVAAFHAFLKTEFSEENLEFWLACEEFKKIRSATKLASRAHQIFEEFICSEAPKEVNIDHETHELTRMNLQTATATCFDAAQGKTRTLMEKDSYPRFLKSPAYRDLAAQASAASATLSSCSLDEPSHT
Target sequence (P09471 whole entry, looked up): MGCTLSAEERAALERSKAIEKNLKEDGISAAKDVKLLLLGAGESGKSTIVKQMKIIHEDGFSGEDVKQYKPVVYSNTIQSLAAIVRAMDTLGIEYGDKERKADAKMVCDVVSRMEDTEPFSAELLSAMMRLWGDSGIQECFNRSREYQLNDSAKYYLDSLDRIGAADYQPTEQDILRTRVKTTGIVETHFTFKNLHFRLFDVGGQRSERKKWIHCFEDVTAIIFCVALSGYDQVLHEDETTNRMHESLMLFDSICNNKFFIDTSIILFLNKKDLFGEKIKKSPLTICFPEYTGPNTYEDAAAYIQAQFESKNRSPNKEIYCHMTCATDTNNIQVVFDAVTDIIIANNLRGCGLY
PKD1 inh: inhibitors of human PKD1 kinase; PKD1 kinase fluorescence polarization assay; 200,000 compounds, 0.056% hits; inhibition, %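 (about 10 µM by stock and volumes)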; Q15139;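 active means inhibition of 50% or more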;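 further: controls were vehicle for no effect and a reference inhibitor for full effect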
INS promoter inh cell count: second read-out of INS promoter inh, no call of its own (marks repeat the call); normalized cell count, %; measured here: cell count, toxicity; reference of the scale not given here;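 cells exposed to compound for 48 h; stained nuclei by imaging scaled within each plate; lower means fewer cells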
HSV replic up primary fold: recorded beside HSV replic up, whose call it bears; fold increase; compound at 10 µM; measured here: primary screen fold increase 10 uM; tested in PC3 cells;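 GFP signal in the first replicate; 1 = infected wells without compound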
Numbers without * were called inactive; i = inactive; x = not tested or not shown.

Order of values – PKD1 inh	HSV replic up primary fold	RGS16-Gao	INS promoter inh	INS promoter inh cell count	HSV replic up	GALR2 ag
COCCN(Cc1ccco1)C(=O)Cn1ncc2c(=O)oc3ccccc3c21
 : x	1	95	x	x	i	x
CCOc1cc(/C=C2/C(=O)N(c3ccccc3)N=C2C)ccc1OC(=O)c1ccco1
 : -3	0.97	83	30	56	i	136*
CC(=O)c1ccc(N2CCN(C(=O)COc3ccc(F)cc3)CC2)c(F)c1
 : -3	0.98	93	-12	76	i	-1.7
CC1CCCN(Cc2nc3c(c(=O)n(C)c(=O)n3C)n2CC(N)=O)C1 (configuration not stated)
 : 6	0.81	104	x	x	i	-3.2
O=C(O)CCC(=O)Nc1ccc(NC(=O)c2ccc(Cl)cc2Cl)c(Cl)c1
 : -3	0.99	108	x	x	i	x
COc1ccc(-c2nsc3c(N4CCN(S(=O)(=O)c5ccccc5F)CC4)ncnc23)cc1
 : 11	0.77	61	-23	66	i	-0.6
c1ccc(CN2CCN(c3nc(-c4ccccn4)nc4ccccc34)CC2)cc1
 : 7	0.85	95	x	x	i	1.8
COC(=O)c1nnn(-c2nonc2N)c1CSc1nc2ccccc2s1
 : 0	0.9	108	11	99	i	-0.1
Cc1cccc2cc(CN(Cc3ccco3)C(c3nnnn3CCc3ccccc3)C(C)C)c(=O)[nH]c12 (configuration not stated)
 : 18	0.84	102	-29	62	i	-1.4
COc1cccc(NC2C=CS(=O)(=O)C2)c1 (configuration not stated)
 : -3	0.91	99	-6	147	i	-0.5
COc1ccc(CNC(=O)Cn2cc(C(F)(F)F)ccc2=O)cc1
 : -5	0.97	99	29	64	i	-2.2
COC(=O)c1cn(NC(=O)Cn2nc([N+](=O)[O-])c(Br)c2C)c(=O)c2ccccc12
 : 3	1	103	x	x	i	x
CCC1(C(=O)OC)NC(c2ccco2)C2C(=O)N(c3ccc(F)cc3)C(=O)C21 (configuration not stated)
 : -4	0.98	108	x	x	i	x
Cc1ccc(C)c(NC(=O)CSc2ncnc3nc[nH]c23)c1
 : -8	0.96	102	5	126	i	-1.0
Clc1ccc(-c2nc3ccccc3[nH]2)cn1
 : x	0.99	98	x	x	i	x

Shown with tabs: part of the list above
smiles	PKD1 inh	HSV replic up primary fold	RGS16-Gao	INS promoter inh	INS promoter inh cell count	HSV replic up	GALR2 ag
COc1cccc(NC2C=CS(=O)(=O)C2)c1 (configuration not stated)	-3	0.91	99	-6	147	i	-0.5
COc1ccc(CNC(=O)Cn2cc(C(F)(F)F)ccc2=O)cc1	-5	0.97	99	29	64	i	-2.2

(cont.)
Order of values – PKD1 inh	HSV replic up primary fold	RGS16-Gao	INS promoter inh	INS promoter inh cell count	HSV replic up	GALR2 ag
Cc1cc(C)n(-c2nc3nonc3nc2Nc2cccc(C)c2C)n1
 : -1	x	105	x	x	x	-1.9
O=C(Cn1ncn2c(cc3ccccc32)c1=O)NCc1ccco1
 : 1	0.94	95	x	x	i	-0.1
Cc1nc2sccn2c(=O)c1CCN1CCC(=C(c2ccc(F)cc2)c2ccc(F)cc2)CC1
 : -9	0.66	96	-14	104	i	-0.9
CCN(CC)S(=O)(=O)c1ccc(OC)c(N)c1
 : -1	0.97	100	18	65	i	x
O=C(CN1CCN(c2ccc(O)cc2)CC1)Nc1cc([N+](=O)[O-])ccc1Cl
 : -1	1	95	x	x	i	-1.6
c1coc(-c2nnc(NC3=NCCC3)o2)c1
 : -7	1.1	114	-61	128	i	-2.4
COc1ccccc1N(C(=O)c1cncc(Br)c1)c1nc(-c2ccc(C)cc2)cs1
 : -3	0.81	91	x	x	i	-1.4
COc1ccccc1Nc1nnc(SCC2CCCCO2)s1 (configuration not stated)
 : -4	0.73	98	56	61	i	x
N#CC(C#N)=C(Nc1ccc(F)cc1)SCc1cccc(Br)c1
 : -1	0.73	82	-12	93	i	-0.2
CCC(=O)Nc1sc2c(c1C#N)CCC2
 : -7	0.9	100	7	124	i	x
CCN(C(=O)c1ccccc1)c1ccc([N+](=O)[O-])cc1
 : -2	1.1	90	x	x	i	-1.3
COc1ccc(/C(O)=C2/C(=O)C(=O)N(CCCN(C)C)C2c2cccc(Cl)c2)cc1OC (configuration not stated)
 : -2	1	103	x	x	i	-0.4
O=C(CN1CCCN(S(=O)(=O)c2ccc(Br)s2)CC1)Nc1ccc(Cl)cc1
 : -4	0.78	101	-35	124	i	-1.1
CN=C(Nc1cc(C)nn1CCC#N)c1ccccc1F
 : 2	0.99	104	x	x	i	-1.4
COc1cc(/C=N/NC(=O)c2cncc(Br)c2)cc([N+](=O)[O-])c1O
 : x	0.89	90	x	x	i	x
Cc1nc2scc(-c3cccs3)c2c(=O)n1-n1cccc1
 : -22	0.93	100	x	x	i	-2.2
O=S(=O)(c1ccc2nc(-c3ccccc3)[nH]c2c1)N1CCN(c2cccc(Cl)c2)CC1
 : -10	0.83	94	-50	65	i	2.5
COc1cc(OC)c2c(c1)C(=O)c1cc(OC)cc(OC)c1C2=O
 : -2	0.9	102	x	x	i	-1.2
Oc1c(/C=N/c2ncn[nH]2)ccc2ccccc12
 : -3	0.86	103	0	80	i	-0.5
O=C1CCCN1c1ccc(Br)cc1
 : 1	0.84	94	7	80	i	-1.2
Cc1ccc(NC(=O)CN2C(=O)CNC2=O)cc1
 : x	0.89	98	x	x	i	x
Cc1cc2c(cc(C(=O)N3CCC(C(=O)N4CCCC4)CC3)n2Cc2c(F)cccc2Cl)o1
 : 0	0.98	97	x	x	i	-3.0
CNC(=O)CSc1nnc(-c2ccncc2)n1Cc1ccccc1
 : -15	1	160	x	x	i	-2.0
O=C(/C=C/NCc1cccnc1)C(F)(F)C(F)(F)F
 : -3	0.99	109	55	119	i	x
Cc1ccc(S(=O)(=O)NCC(=O)N(CC(=O)NC2CCCCC2)CC2CCCO2)cc1 (configuration not stated)
 : -6	0.94	105	-57	136	i	-0.6
CCOC(=O)CN1CCc2c(C)nc3c(-c4ccc(OC)c(OC)c4)cnn3c21
 : -4	0.87	97	x	x	i	-0.2
O=C(CCN1C(=O)C2C3C=CC(C3)C2C1=O)N1CC(=O)N(CCc2ccccc2)C(=O)C1 (configuration not stated)
 : -2	0.93	102	x	x	i	0.2
Cc1ccccc1-c1nc(CS(=O)(=O)CC(=O)N2CCc3ccccc32)c(C)o1
 : -1	0.87	100	x	x	i	-0.8
COc1ccccc1NC(=O)CN1CCN(c2ccccc2F)CC1
 : 10	0.9	103	-7	61	i	-1.2
CCOc1ccccc1C(=O)Nc1nnc(SCC(=O)N2CCOCC2)s1
 : -1	1.1	99	x	x	i	x

Looked up above:
Cc1ccccc1-c1nc(CS(=O)(=O)CC(=O)N2CCc3ccccc32)c(C)o1 – GALR2 ag = -0.8
O=C(/C=C/NCc1cccnc1)C(F)(F)C(F)(F)F – HSV replic up primary fold = 0.99

Complete entries from above. Order of screens: PKD1 inh, HSV replic up primary fold, RGS16-Gao, INS promoter inh, INS promoter inh cell count, HSV replic up, GALR2 ag
Oc1c(/C=N/c2ncn[nH]2)ccc2ccccc12 is listed as -3, 0.86, 103, 0, 80, i, -0.5
O=C1CCCN1c1ccc(Br)cc1 is listed as 1, 0.84, 94, 7, 80, i, -1.2
COc1ccccc1NC(=O)CN1CCN(c2ccccc2F)CC1 is listed as 10, 0.9, 103, -7, 61, i, -1.2
COc1cc(OC)c2c(c1)C(=O)c1cc(OC)cc(OC)c1C2=O is listed as -2, 0.9, 102, x, x, i, -1.2
Cc1ccccc1-c1nc(CS(=O)(=O)CC(=O)N2CCc3ccccc32)c(C)o1 is listed as -1, 0.87, 100, x, x, i, -0.8

In a second layout: entries from further up.
O=C(/C=C/NCc1cccnc1)C(F)(F)C(F)(F)F
  PKD1 inh = -3	HSV replic up primary fold = 0.99	RGS16-Gao = 109	INS promoter inh = 55	INS promoter inh cell count = 119	HSV replic up = i	GALR2 ag = x

Cc1ccc(S(=O)(=O)NCC(=O)N(CC(=O)NC2CCCCC2)CC2CCCO2)cc1 (configuration not stated)
  PKD1 inh = -6	HSV replic up primary fold = 0.94	RGS16-Gao = 105	INS promoter inh = -57	INS promoter inh cell count = 136	HSV replic up = i	GALR2 ag = -0.6

CCOC(=O)CN1CCc2c(C)nc3c(-c4ccc(OC)c(OC)c4)cnn3c21
  PKD1 inh = -4	HSV replic up primary fold = 0.87	RGS16-Gao = 97	INS promoter inh = x	INS promoter inh cell count = x	HSV replic up = i	GALR2 ag = -0.2

O=C(CCN1C(=O)C2C3C=CC(C3)C2C1=O)N1CC(=O)N(CCc2ccccc2)C(=O)C1 (configuration not stated)
  PKD1 inh = -2	HSV replic up primary fold = 0.93	RGS16-Gao = 102	INS promoter inh = x	INS promoter inh cell count = x	HSV replic up = i	GALR2 ag = 0.2

(more compounds)
Order of values – PKD1 inh	HSV replic up primary fold	RGS16-Gao	INS promoter inh	INS promoter inh cell count	HSV replic up	GALR2 ag
CN(C)c1ccc(C(=S)N2CCN(C(=S)Nc3ccccc3)CC2)cc1
 : 0	0.89	113	-10	123	i	x
CCCC(=O)Nc1nc2c(OC)ccc(OC)c2s1
 : -4	0.87	105	x	x	i	-2.5
CCOC(=O)N1CCC(Nc2cccc(SC)c2)CC1
 : 1	0.86	100	10	50	i	-2.9
O=C(c1cnn2c1NC(c1ccco1)CC2C(F)(F)F)N1CCN(c2cccc(Cl)c2)CC1 (configuration not stated)
 : -4	0.91	100	46	127	i	-2.9
CCN(CC(=O)Nc1ccc2c(c1)OCCO2)C(=O)C1CCCCC1
 : -4	0.93	111	x	x	i	-0.9
COC(=O)C1(C(C[N+](=O)[O-])c2ccc(C)cc2)C(=O)NCC1c1ccco1 (configuration not stated)
 : x	0.96	96	x	x	i	x
COc1ccc(C(=O)N(CC(=O)NC(C)(C)C)c2ccc3c(c2)OCCO3)cc1OC
 : 0	0.92	103	-40	53	i	-1.6
COc1ccc(C2=NN3C(C2)c2ccccc2OC32C(=O)N(C)c3ccccc32)cc1 (configuration not stated)
 : 1	x	97	-42	92	x	-2.2
COc1ccc(C2(CNC(=O)CCC(=O)O)CCCC2)cc1
 : -11	0.94	90	-260	64	i	-2.0
CC(=O)c1sc(N/N=C2\CC3CC2C(C)C3(C)C)nc1C (configuration not stated)
 : -4	1.1	97	x	x	i	x
O=C(N=Nc1c(O)[nH]c2ccccc12)c1cccs1
 : -5	x	104	36	107	x	x
COc1ccc(N(CC(=O)Nc2cccc(C)c2C)S(=O)(=O)c2c(C)[nH]c(=O)[nH]c2=O)cc1
 : x	0.98	100	x	x	i	x
CN1CCN(C(=O)c2ccc(C(F)(F)F)cc2)CC1
 : 2	1.3	103	-24	62	i	x
Cc1cccnc1NC(N)=S
 : -3	0.92	88	x	x	i	x
N#CC1(c2nc3ccccc3[nH]2)CC1c1ccc2c(c1)OCO2 (configuration not stated)
 : -2	0.9	123	36	55	i	-0.1
Cc1cc(=O)[nH]c(SCCOc2ccc(OC(C)C)cc2)n1
 : 3	0.95	129	66	80	i	-2.2
COc1ccc(NC(=O)C(CCSC)NC(N)=O)cc1NS(=O)(=O)c1ccc(F)cc1 (configuration not stated)
 : -3	1	103	x	x	i	x
COc1ccc(N=C(c2ccccc2)c2c(C)[nH]n(-c3ccccc3)c2=O)c(OC)c1
 : x	0.92	103	x	x	i	x
C/C(=C1/C(=O)N(c2ccc([N+](=O)[O-])cc2)N=C1c1ccccc1)N(C)C
 : 3	0.96	102	x	x	i	-2.5
CC(C)C[C@H](N)c1cn([C@@H](Cc2ccc(O)cc2)C(=O)N2CCNCC2)nn1
 : -5	0.77	107	x	x	i	x
CCCn1c(N)c(C(=O)CSc2nc3ccccc3s2)c(=O)[nH]c1=O
 : -2	0.87	102	x	x	i	x
Cc1ccccc1CS(=O)(=O)c1snnc1C
 : -11	0.96	102	-59	102	i	0.1
CSc1nnc(C)c(=O)n1COC(=O)c1ccc(S(=O)(=O)N2CCOCC2)cc1
 : 0	1	116	x	x	i	-0.3
Cc1c(NC(=O)c2nn3c(C(F)(F)F)cc(-c4ccccc4)nc3c2Cl)c(=O)n(-c2ccccc2)n1C
 : 2	0.88	112	-23	42	i	-1.3
CC(=O)Nc1ccc(S(=O)(=O)n2nc(-c3ccc(C)cc3)nc2N)cc1
 : 10	0.98	98	x	x	i	-0.5
CCOC(=O)N1CCN(C(=O)C2CCCN(S(=O)(=O)c3ccccc3)C2)CC1 (configuration not stated)
 : 2	0.83	104	29	120	i	-2.1
